GLA inh pH 4.5 – blocks human alpha-galactosidase A at pH 4.5; P06280; purified enzyme, 4-MU-alpha-Gal fluorescence, pH 4.5; activity change, negative = inhibition, % at 105 µM; 230,000 tested, under 10 active; AID 1467; inconclusive = small, poorly fitted or top-dose-only inhibition, or a rising curve; inactive = flat fitted curve, though single readings scatter; no compound was filed as active;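 further: 0% = full activity with enzyme and -100% = basal without enzyme; dose as in the result columns while the protocol names 77 µM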
Rango dissoc inh – inhibitors of RanGTP-induced Rango-importin beta complex dissociation; O95149+P62826; Biochemical FRET Rango-importin beta, RanGTP-induced dissociation; Potency, µM (highest dose often 46.1 µM), for the others: top-dose activity change, negative = inhibition; actives 0.071% (n = 340,000); active means falling FRET ratio curve, often poorly fitted, with flat reads before Ran was added; inconclusive means other falling curves, or compound fluorescence or quenching; inactive means flat or rising ratio curve;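 further: potency means the concentration at half of the fitted maximal effect; % of control where 0% means no effect; nearly all actives have a fitted effect of over 45% in size; -100% = wells without RanGTP and RCC1; the record marks most hits as doubtful in a second field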
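Compounds sat 5 min at room temperature with 0.1 uM Rango biosensor plus 0.25 uM importin beta, then FRET pre-read. RanGTP-RCC1 (0.6 uM Ran, 2mM GTP, 0.2 uM RCC1) added for 45 min, and the CFP/YFP post-read measured blocked complex dissociation.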
Rango-impB inh – inhibitors of Rango-importin beta complex formation; Potency, µM (top dose mostly 92.2 µM), for inactives: at the highest dose inhibition of complex formation; actives 0.031% (n = 340,000); Q14974; Rango CFP/YFP FRET sensor + importin beta, 45 min; active = rising FRET ratio curve, often small or poorly fitted; inconclusive = mostly compound fluorescence or quenching in the first reads; inactive = flat curves in all reads;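 further: potency means the concentration at half of the fitted maximal effect; 0% = DMSO wells and 100% = buffer wells lacking importin beta; nearly all actives have a fitted effect of over 15% in size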
Target sequence (Q14974 whole entry, looked up): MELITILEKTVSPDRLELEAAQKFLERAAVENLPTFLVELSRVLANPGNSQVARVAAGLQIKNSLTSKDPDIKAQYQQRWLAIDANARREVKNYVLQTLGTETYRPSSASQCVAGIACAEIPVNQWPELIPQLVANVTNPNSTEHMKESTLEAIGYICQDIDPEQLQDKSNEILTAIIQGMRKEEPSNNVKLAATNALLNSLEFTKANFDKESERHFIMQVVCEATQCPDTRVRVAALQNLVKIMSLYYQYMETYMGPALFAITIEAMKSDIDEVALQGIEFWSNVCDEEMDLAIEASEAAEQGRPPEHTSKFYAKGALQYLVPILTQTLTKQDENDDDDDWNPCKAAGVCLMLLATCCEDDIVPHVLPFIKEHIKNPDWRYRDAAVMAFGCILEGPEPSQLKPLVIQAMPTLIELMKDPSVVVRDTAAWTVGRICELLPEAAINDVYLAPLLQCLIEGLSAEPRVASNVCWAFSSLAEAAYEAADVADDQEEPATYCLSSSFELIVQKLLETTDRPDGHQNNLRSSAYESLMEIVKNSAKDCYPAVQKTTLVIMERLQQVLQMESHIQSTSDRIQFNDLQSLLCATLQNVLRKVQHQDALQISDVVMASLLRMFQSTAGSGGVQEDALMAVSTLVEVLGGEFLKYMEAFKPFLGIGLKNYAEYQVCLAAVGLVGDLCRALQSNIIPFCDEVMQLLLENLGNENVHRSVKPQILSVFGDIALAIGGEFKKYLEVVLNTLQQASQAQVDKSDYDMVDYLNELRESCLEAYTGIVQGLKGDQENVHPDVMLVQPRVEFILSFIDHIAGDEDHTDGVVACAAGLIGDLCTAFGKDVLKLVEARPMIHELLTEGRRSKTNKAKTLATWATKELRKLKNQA
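Inhibition scored from the CFP 486 nm/YFP 530 nm FRET ratio 45 min after adding 0.125 microM importin beta to 50 nM Rango biosensor preincubated 5 min with compound (room temperature, PBS with DTT, Tween-20, BSA). No-importin wells as positive control.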
miR-21 FLuc – raises the signal of a miR-21 reporter; HeLa miR-21 FLuc reporter, luciferase, 48 h; Potency, µM (doses to about 38.3 µM), without a hit: at the top dose reporter change, positive = more light; 340,000 tested, under 10 active; active = well fitted rising curve with a large enough effect; inconclusive = small, poorly fitted or top-dose-only effect; inactive = no such curve, though single readings can be large or run the other way;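 further: % of control where 0% means no effect; miR-21 action dims this reporter so a rising signal means less miR-21 action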
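Using DMEM plus 10% FBS, HeLa miR-21-FLuc cells are incubated with test compounds (final up to about 40uM) for 48 hours; firefly luciferase signal is then imaged following reagent-mediated lysis.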
Starred values were filed as active, the others as inactive; ? = inconclusive; / = no result given; & = joins results of further samples; [ ] = dose if it differs, or a comment. Not all compounds are listed. The share of hits here may be higher or lower than overall.

GLA inh pH 4.5 | Rango dissoc inh | Rango-impB inh | miR-21 FLuc | structure
9 | 1% | 0.2% | -1% | CC(/C=C/c1ccccc1)=N/NC(=O)c1cc([N+](=O)[O-])cc([N+](=O)[O-])c1
1 | -8% | -0.9% | -11% | Cn1c(CNc2ccccn2)c(C#N)c2ccccc21
6 | 18% | -2.1% | -1% | Cc1nnc(SCC(=O)NNC(=O)c2ccco2)n1-c1ccccc1
/ | ? | -0.9% | / | CCOc1ccccc1-n1nnnc1SCC(=O)NCC1(N2CCOCC2)CCCCC1
/ | -13% | 0.2% | -40% | COc1cccc(OCc2cc(C(=O)N3CCN(C(C)=O)CC3)no2)c1
/ | -9% | 0.9% | 1% | Cc1ccc(CNC(=O)CS(=O)(=O)Cc2nc(-c3ccc(C)cc3)oc2C)cc1
1 | 17% | 1.9% | -1% | O=C(NCC1OCCc2ccccc21)c1ccc(NC(=O)c2ccc(Cl)cc2)cc1 (centres undefined)
/ | -9% | ? | 3% | COc1ccccc1CCC(=O)Nc1ccc2c(c1)CN(Cc1ccc(CO)o1)CC2
/ | -1% | -1.3% | -1% | Cc1cc(S(=O)(=O)NCc2cccnc2)ccc1F
/ | 3% | 0.8% | -18% | COc1ccc(N2C(=O)C(C)C(Cc3ccc(C)cc3)C2=O)cc1 (centres undefined)
7 | 1% | -0.2% | 1% | Cn1c(SCC(=O)Nc2ccc(F)cc2)nnc1-c1cccnc1
/ | -1% | -0.8% | -2% | Cn1c(Cc2cccs2)nnc1SCC(=O)Nc1ccccc1
/ | 29% | 0.3% | 1% | CN(C)S(=O)(=O)c1ccc(NC(=S)NC(=O)C2CCC2)cc1
/ | 9% | 1.0% | / | COc1ccccc1C(=O)COC(=O)CSC(C)C(=O)Nc1cc(C)on1 (centres undefined)
/ | -8% | 1.0% | -5% | COc1ccc(N(CC(=O)NC2CCCCC2)C(=O)CNC(=O)c2cccs2)cc1OC
-6 | 28% | 5.1% | 5% | O=c1c(Cl)c(N2CCN(S(=O)(=O)c3ccc(F)cc3)CC2)cnn1-c1cccc(Cl)c1
0 | -3% | -2.7% | -4% | O=C(CSc1nc2cccnc2n1Cc1ccccc1)NC1CCCCC1
3 | 2% | -1.2% | -1% | Cc1ccccc1C(=O)Nc1ccccc1C(=O)N/N=C\c1ccco1
4 | / | / | 2% | Fc1ccccc1/C=N/Nc1nc(-c2ccccn2)nc2ccccc12
-3 | 1% | -1.3% | 1% | Cc1nc2nc[nH]n2c(=O)c1NS(=O)(=O)c1ccc(F)cc1
4 | -18% | ? | -18% | Cc1ccc(CNc2cc(-c3nn4c(C)nnc4s3)ccc2C)s1
-10 | 1% | 0.3% | -2% | COC(=O)C1=C(C)N=C2SCCC(=O)N2C1c1ccc(C(=O)OC)cc1 (centres undefined)
4 | 3% | 0.6% | -8% | Clc1cccc(CSc2nnc(-c3sccc3-n3cccc3)o2)c1
/ | 10% | -1.3% | -19% | O=C(NCc1ccc(Cl)cc1)N1CCc2ccccc2C1
5 | 13% | -1.3% | -1% | O=C(NCc1ccco1)C(c1cccnc1)N(C(=O)Cn1nnc2ccccc21)c1ccccc1 (centres undefined)
/ | -1% | 0.6% | 1% | CC1(C)Cc2ccccc2-c2nc(NN)[nH]c(=O)c21
/ | -3% | -0.8% | -1% | CC(C)COc1ccc(-c2nn(-c3ccccc3)cc2/C=C2/SC(=S)N(CC(=O)O)C2=O)cc1
-11&-5 | 7% | 2.5% | -15% | COC(=O)[C@@]1(Cc2ccc(F)cc2)[C@H]2c3cc(C(=O)N(C)C)n(Cc4ccc(OC)c(OC)c4)c3C[C@H]2CN1C(=O)c1ccccc1
/ | -9% | 3.7% | / | CCOc1ccc(S(=O)(=O)NCCC(=O)NCCc2ccc(C(C)C)cc2)cc1
/ | 8% | -3.7% | / | CC1CCCCC12NC(=O)N(CC(=O)N1CCN(Cc3ccc(C#N)cc3)CC1)C2=O (centres undefined)
-3 | -21% | 2.1% | 22% | S=C(NCCSCc1ccc(Cl)cc1Cl)Nc1ccccc1
-5 | 1% | -3.5% | -7% | CCOc1ccc2ccccc2c1/C=N/NC(=O)CNC(=O)Cc1ccccc1
4 | 6% | 3.7% | 0% | CC(NC(=O)c1ccccc1)C(c1cccs1)N1CCOCC1 (centres undefined)
/ | 4% | 2.2% | / | CC1CC(C)(C)CC2(C1)NC(=O)N(CC(=O)N1CCN(S(=O)(=O)c3ccc(F)c(F)c3F)CC1)C2=O (centres undefined)
-5 | -2% | -0.1% | -39% | Cc1ccccc1-c1nnn(CC(=O)Nc2ccc3c(c2)OCCO3)n1
-14 | ? | ? | -17% | CCN(CC)c1ccc(/C=N/NC(=O)c2ccc3nc[nH]c3c2)cc1
1 | -12% | -1.4% | 20% | COc1cc(C2C3=C(Nc4ncnn42)c2ccccc2CC3)cc(OC)c1OC (centres undefined)
-5 | -7% | 0.8% | -24% | COc1ccc(NC(=O)CCSc2ccc3ccccc3n2)cc1
-10 | 7% | -2.0% | 2% | Cc1c(C(=S)Nc2ccccc2)cnn1-c1ccc([N+](=O)[O-])cc1
-7 | -13% | 0.0% | / | CCN(CC)CCCCCCCCOC(=O)c1cc(OC)c(OC)c(OC)c1
-7 | 2% | -0.3% | -22% | CC(C)/C(=N/Nc1ccccc1[N+](=O)[O-])c1ccccc1
-23 | 5% | 0.7% | 2% | CC(=O)Nc1ccc(NC(=O)CSc2ccccn2)cc1
2 | ? | ? | 2% | COCCNC(=O)/C(C#N)=C/c1nc(N(C)C)n(-c2ccc(F)cc2)c1Cl
-6 | 9% | 1.4% | -1% | COc1ccc([N+](=O)[O-])cc1NC(=O)c1cn(-c2ccc(Cl)cc2)c(=O)c2ccccc12
-10 | ? | 2.1% | 27% | CCOCCCNC(=O)/C(C#N)=C/c1ccc(-c2ccc(S(=O)(=O)N3CCOCC3)cc2)o1
-7 | 22% | 0.2% | -1% | CCC(C(=O)Nc1nc(C)cs1)c1ccccc1 (centres undefined)
-5 | -11% | 2.0% | -2% | CCOc1cc2c(cc1OCC)C(C(=O)O)C(c1ccc(OC)c(O)c1)N(C)C2=O (centres undefined)
/ | 0% | 4.0% | 0% | NC(=O)c1cc(S(=O)(=O)Nc2ccc(OC(F)(F)F)cc2)cs1
4 | 16% | 1.2% | -6% | Cc1cc2cc(CN(CC3CCCO3)C(=O)c3cnccn3)c(=O)[nH]c2cc1C (centres undefined)
-6 | 2% | 9.8% | 10% | O=C(CN1CCN(c2ccccn2)CC1)N1c2ccccc2CCc2ccccc21

At a glance, part of the list above:
GLA inh pH 4.5 | Rango dissoc inh | Rango-impB inh | miR-21 FLuc | structure
-5 | -11% | 2.0% | -2% | CCOc1cc2c(cc1OCC)C(C(=O)O)C(c1ccc(OC)c(O)c1)N(C)C2=O (centres undefined)
/ | 0% | 4.0% | 0% | NC(=O)c1cc(S(=O)(=O)Nc2ccc(OC(F)(F)F)cc2)cs1
4 | 16% | 1.2% | -6% | Cc1cc2cc(CN(CC3CCCO3)C(=O)c3cnccn3)c(=O)[nH]c2cc1C (centres undefined)
-6 | 2% | 9.8% | 10% | O=C(CN1CCN(c2ccccn2)CC1)N1c2ccccc2CCc2ccccc21

(next part)
GLA inh pH 4.5 | Rango dissoc inh | Rango-impB inh | miR-21 FLuc | structure
0 | -7% | 0.6% | -12% | O=C(Nc1cccc([N+](=O)[O-])c1)C1C2CC/C=C\CCC21 (centres undefined)
-3 | -14% | -2.8% | 21% | Cc1[nH]c2ccccc2c1CCN(Cc1cccnc1)C(=S)Nc1ccc(F)cc1
-6 | ? | -0.2% | -4% | CCC1(CC)C(=O)C(C)(C)C(=O)OC1c1ccccn1 (centres undefined)
9 | 0% | 0.1% | -1% | O=C(CSc1ncnc2c1nnn2-c1ccc(F)cc1)NCc1ccco1
/ | 0% | -1.5% | 1% | O=C(c1ccco1)N1CCN(C2CC(=O)N(c3ccc(F)c(Cl)c3)C2=O)CC1 (centres undefined)
-2 | 13% | 1.5% | -10% | CCOC(=O)c1cc(-c2ccc(C)o2)nn1CCC#N
3 | -6% | -1.5% | -8% | CCOc1ccc(Br)cc1-c1noc(-c2cccs2)n1
/ | -18% | -3.1% | / | Cc1ccc(NC(=O)c2oc3ccccc3c2COC(C)C)cc1S(=O)(=O)N1CCOCC1
1 | -12% | 2.8% | -4% | CN(C)CCCCCNCCCNC(=O)/C=N\O
/ | 0% | -2.6% | -1% | CCOc1ccc(/C=C/C(=O)N(CC)CC(=O)Nc2ccc3c(c2)OCCO3)cc1OCC
/ | -11% | 3.7% | / | C=C1CCN([C@@H](CC(C)C)C(=O)Nc2ccc(OC)cc2)S(=O)(=O)c2ccccc21
/ | -6% | -1.8% | / | CCN(C(=O)COC(=O)CCC1CCCC1)c1c(N)n(Cc2ccccc2)c(=O)[nH]c1=O
1 | 6% | 1.0% | -42% | C/C(=N\N=c1/scc(C)n1Cc1ccco1)c1cccc([N+](=O)[O-])c1
-6 | ? | ? | -6% | O=S(=O)(N[C@@H]1C[C@H]2CC[C@@H]1C2)c1cccs1
/ | 4% | -3.4% | -1% | Cc1[nH]c(=O)[nH]c(=O)c1S(=O)(=O)N1CCCCC1
4 | -4% | -1.8% | -6% | COc1ccc(Nc2nc(OC)nc(N3CCN(c4ccc(OC)cc4)CC3)n2)cc1
7 | -1% | 0.0% | -8% | CC1(C)Oc2ccc3ccc(=O)oc3c2/C(=C/NCCO)C1=O
-1 | -9% | -0.1% | 0% | O=C(N[C@@H](Cc1ccccc1)C(=O)O)c1cccnc1
0 | -5% | -0.7% | -2% | O=C(COC(=O)c1cc(-c2cccs2)nn1-c1ccccc1)Nc1cccc([N+](=O)[O-])c1
/ | -11% | -1.5% | -5% | Cc1ccc(-c2nc3ncccc3o2)cc1NC(=O)C(C)(C)C
/ | -1% | -1.1% | / | Cc1nn(-c2ccccc2)c(C)c1C(=O)OC(C)C(=O)Nc1ccc(C(N)=O)cc1 (centres undefined)
-4 | 0% | 0.3% | -73% | O=C(Nc1ccccc1)Nc1ccc2ccccc2c1
-1 | -10% | 1.5% | 2% | Cc1ccc(N2C(=O)/C(=C\c3ccc(C(C)C)cc3)N=C2SC2CCOC2=O)cc1 (centres undefined)
/ | -8% | -1.8% | / | Nc1ccc(-c2nnn(Cc3ccccc3)n2)cc1
2 | -2% | 0.1% | 5% | Cc1cc([N+](=O)[O-])nn1CC(=O)N1c2ccccc2CC1C (centres undefined)

Brought forward from above: 4 compounds, followed by the next part.
GLA inh pH 4.5 | Rango dissoc inh | Rango-impB inh | miR-21 FLuc | structure
-4 | 0% | 0.3% | -73% | O=C(Nc1ccccc1)Nc1ccc2ccccc2c1
-1 | -10% | 1.5% | 2% | Cc1ccc(N2C(=O)/C(=C\c3ccc(C(C)C)cc3)N=C2SC2CCOC2=O)cc1 (centres undefined)
/ | -8% | -1.8% | / | Nc1ccc(-c2nnn(Cc3ccccc3)n2)cc1
2 | -2% | 0.1% | 5% | Cc1cc([N+](=O)[O-])nn1CC(=O)N1c2ccccc2CC1C (centres undefined)
-6 | 14% | 0.2% | 0% | COCc1c(C(=O)N/N=C/c2cccc3ccccc23)nnn1-c1nonc1N
-9 | -9% | -0.4% | 20% | CSc1ccc(NC(=O)N2CC=C(n3c(=O)[nH]c4ccccc43)CC2)cc1
-6[21.1 µM] | 1% | 3.8% | -9% | O=C(O)CC(NC(=O)C12CC3CC(CC(C3)C1)C2)c1cc([N+](=O)[O-])ccc1Cl (centres undefined)
-23 | -10% | 2.5% | 3% | COc1c(C(=O)Nc2ccc(Cc3ccncc3)cc2)ccc2ccccc12
/ | 12% | -1.6% | 0% | O=C(CCn1nnnc1CN1CCOCC1)N1CCC(c2ccccc2F)C1 (centres undefined)
-2 | 40% | 0.4% | -3% | O=c1c2ccccc2nc(/C=C/c2ccccc2)n1CCc1ccccc1
/ | -2% | -0.6% | -13% | CCOc1ccc(CN(C)C(=O)c2cc3ccccc3o2)cc1OC
/ | -9% | 2.6% | 6% | CCOC(=O)c1c(CSc2ccccc2)n(C)c2cc(Br)c(OC)c(O)c12

Screening results from PubChem BioAssay.
